Assay outcomes (PubChem)
Arbovirus anti: arbovirus infection inhibition; inhibition, % at 10 µM; arbovirus infection cell-based antiviral screen; actives 0.37% (n = 200,000); AID 1251;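 active means inhibition from about 30%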;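 further: bluetongue infection of BSR cells; cell survival read as ATP light after 72 h; 0% = infected wells without compound and 100% = uninfected wells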
RecA intein inh: inhibitors of M. tuberculosis RecA intein splicing. cell-free RecA intein splicing, fluorescence. P9WHJ3. AID 2221. actives 0.75% (n = 290,000). inhibition, %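 (about 9 µM by stock and volumes)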; in the data active means inhibition above about 30%;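 further: 0% = vehicle wells and 100% = reference inhibitor control wells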
Target sequence (P9WHJ3 whole entry, looked up): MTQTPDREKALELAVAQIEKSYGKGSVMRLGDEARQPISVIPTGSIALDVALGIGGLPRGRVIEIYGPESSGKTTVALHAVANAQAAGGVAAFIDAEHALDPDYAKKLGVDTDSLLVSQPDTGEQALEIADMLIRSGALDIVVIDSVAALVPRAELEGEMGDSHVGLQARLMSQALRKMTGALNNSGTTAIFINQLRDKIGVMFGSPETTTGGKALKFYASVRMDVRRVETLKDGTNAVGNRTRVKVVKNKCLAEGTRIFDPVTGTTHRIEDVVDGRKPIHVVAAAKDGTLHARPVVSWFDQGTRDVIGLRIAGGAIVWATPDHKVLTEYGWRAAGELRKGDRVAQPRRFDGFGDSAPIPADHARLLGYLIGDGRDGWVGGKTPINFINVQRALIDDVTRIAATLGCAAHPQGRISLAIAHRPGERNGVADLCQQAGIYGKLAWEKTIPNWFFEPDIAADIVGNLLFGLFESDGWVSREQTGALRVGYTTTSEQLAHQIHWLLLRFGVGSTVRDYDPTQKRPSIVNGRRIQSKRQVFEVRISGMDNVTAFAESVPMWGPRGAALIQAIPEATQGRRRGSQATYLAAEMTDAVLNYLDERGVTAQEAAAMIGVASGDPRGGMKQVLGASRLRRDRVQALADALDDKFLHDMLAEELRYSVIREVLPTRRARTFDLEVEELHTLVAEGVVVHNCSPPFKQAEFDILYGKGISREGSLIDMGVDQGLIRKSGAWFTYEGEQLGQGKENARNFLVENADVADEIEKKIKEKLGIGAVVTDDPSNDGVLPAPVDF
YopH inh: YopH (Yersinia) phosphatase inhibition. inhibition, %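 (about 10 µM by stock and volumes)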. actives 0.16% (n = 140,000). fluorescence Ex485/Em525. AID 898;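 active means inhibition of 50% or more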;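 further: controls were vehicle for no effect and minimum signal wells for full effect; inactives centre near -20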
Mtb bLac sens: beta-lactam sensitization of Mtb H37Rv | M. tuberculosis H37Rv growth with meropenem, percent inhibition; hits of this screen are not shown here | inhibition, % at 25 µM | actives 0.27% (n = 330,000);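 active means about 74% or more and at least 40 points above the plate without the antibiotic, then above 30% in a dose series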;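 further: growth measured after seven days incubation then overnight dye step; 0% = bacteria only wells and 100% = bacteria with antibiotic; twin plates without the antibiotic show which effects depend on it; some results filed as inactive read as strong as hits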
Mtb growth: M. tuberculosis H37Rv growth inhibitors, H37Rv strain (AID 1626); inhibition, % at 10 µM; hits with a dose series show IC50 in µM; actives 0.95% (n = 220,000); M. tuberculosis H37Rv growth inhibition; higher % means a stronger effect;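 active means confirmed in a dose series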;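 further: bacteria incubated seven days before Alamar blue readout; 0% = bacteria only wells and 100% = bacteria with antibiotic wells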
Arbovirus anti repeat: second read-out of Arbovirus anti, no call of its own (marks repeat the call); inhibition, %; measured here: 10K subset replicate screen; many hits read low in the repeat;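 first of two repeat runs on a subset; 0% = infected and 100% = uninfected wells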
Active calls of the source: *; / = no result given. A portion of the library; count on the stated rates, not on these rows.

SMILES | Arbovirus anti | RecA intein inh | YopH inh | Mtb bLac sens | Mtb growth | others
COc1ccccc1/C=C/C(=O)Nc1cccnc1 | / | 0.6 | / | -6 | /
COC(=O)c1ccccc1-n1c(CCC(=O)O)ccc1-c1ccc(F)cc1 | / | 0.6 | / | -1 | /
Fc1ccc(OCCOCCN2CCNCC2)cc1 | / | -0.8 | / | -14 | /
CN(C)/C=N/c1ncnc2c1cnn2-c1ccc(C(F)(F)F)cn1 | -4 | -4.5 | 15 | / | -7%
CC(C)CCn1c(SCC(=O)N2CC(=O)Nc3ccccc32)nc2scc(-c3cccs3)c2c1=O | 3 | 5.4 | -12 | 0 | 3%
COc1ccccc1N1CCN(C(=O)c2cc3c(=O)n(C)c4ccccc4c3n2C)CC1 | -3 | -0.3 | -30 | 5 | -1% | Arbovirus anti repeat=3
COc1cccc(C(=O)N2c3ccccc3Sc3ccccc32)c1 | -5 | 28 | -11 | 4 | 5%
Cc1onc(-c2ccc(Cl)cc2Cl)c1-c1csc(N/N=C/c2ccccc2)n1 | / | 15 | / | -1 | -7%
CCCCCCCCCCCCCCCC[n+]1ccc(/C=N/O)cc1 | -41 | / | -17 | 68 | 17%
Nc1nnc(SCCN2C(=O)c3ccccc3S2(=O)=O)s1 | 1 | 1.0 | 0 | -6 | 4%
CC(C)[C@H](NC(=O)c1ccccc1)C(=O)NCCc1ccccc1 | / | 5.4 | / | -2 | /
COc1ccc(C2=NO[C@@H]3C(=O)N(c4ccc(C)cc4C)C(=O)[C@H]23)cc1OC | 5 | -0.1 | -39 | -4 | -4%
O=C(NNc1nc2cc3c(cc2s1)OCO3)c1ccccc1 | 0 | -4.6 | -1 | 2 | /
Cc1nn2c(=O)cc(CSc3nc4ccccc4[nH]3)nc2s1 | 12 | -1.4 | / | 1 | -6% | Arbovirus anti repeat=3
O=C(O)CC(c1ccc(Cl)cc1)N1C(=O)CCC1=O (centres undefined) | 8 | -0.8 | -1 | -8 | -11%
COc1ccc(/C=N/NC(=O)C[n+]2ccccc2)c(OC)c1 | 1 | 0.1 | / | 3 | 3%
c1ccc(-c2ccc(CN3C[C@@H]4C(c5ccccc5)C5(c6ccccc6)CC4(C5)[C@H]3c3ccccc3)cc2)cc1 (some centres undefined) | / | 2.1 | / | -9 | -9%
COc1cccc(Nc2nc(C)cc(C)c2C#N)c1 | -3 | / | -16 | -8 | 6%
COc1ccc(Nc2nc(-c3ccc(OC)cc3)cs2)cc1 | -3 | 0.3 | / | 2 | -1%
COc1ccc(S(=O)(=O)N(Cc2cc3ccc(OC)cc3[nH]c2=O)CC2COCCO2)cc1 (centres undefined) | 2 | -0.6 | -16 | -11 | 0%
CCOC(=O)N1CCN(c2cc(=O)n(-c3cccc(C)c3)c(=O)[nH]2)CC1 | -2 | 0.4 | / | 7 | -1%
Cc1ccc(C(=O)c2c(NC(=O)c3ccncc3)sc3c2CCCC3)cc1 | -5 | -0.2 | -11 | 74 | 34%
CC1NC(=S)N(Cc2ccccc2)C1=O (centres undefined) | / | 2.1 | / | 0 | /
Cc1ccc2nc(SCC(=O)NCc3ccco3)c(C)cc2c1 | -10 | 2.1 | / | 26 | -5%
CCOC(=O)c1ccc(NC(=O)C2CCCN(S(=O)(=O)c3cnc[nH]3)C2)cc1 (centres undefined) | 5 | / | -51 | -1 | 7% | Arbovirus anti repeat=5
COc1cc(/C=N\NC(=O)c2cccc(Cl)c2)ccc1Oc1ccc([N+](=O)[O-])cn1 | / | 2.0 | / | 3 | 2%
CCN(CC)S(=O)(=O)c1ccc(Oc2ccc(S(=O)(=O)N(CC)CC)cc2)cc1 | 1 | 2.5 | -18 | 3 | -4%
O=C(c1sccc1-c1ccccc1)N1CCN(S(=O)(=O)c2ccccc2)CC1 | / | 2.7 | / | -11 | /
O=C(COc1ccccc1)NNC1=NS(=O)(=O)c2ccccc21 | 11 | 1.8 | / | 4 | 5%
COc1ccc(C(C(=O)NC(C)(C)C)N(Cc2ccco2)C(=O)CCC(=O)Nc2ccccn2)cc1 (centres undefined) | / | 0.4 | / | 1 | /

In the list so far, these have two or more sulfur atoms:
SMILES | Arbovirus anti | RecA intein inh | YopH inh | Mtb bLac sens | Mtb growth | others
CC(C)CCn1c(SCC(=O)N2CC(=O)Nc3ccccc32)nc2scc(-c3cccs3)c2c1=O | 3 | 5.4 | -12 | 0 | 3%
Nc1nnc(SCCN2C(=O)c3ccccc3S2(=O)=O)s1 | 1 | 1.0 | 0 | -6 | 4%
Cc1nn2c(=O)cc(CSc3nc4ccccc4[nH]3)nc2s1 | 12 | -1.4 | / | 1 | -6% | Arbovirus anti repeat=3
CCN(CC)S(=O)(=O)c1ccc(Oc2ccc(S(=O)(=O)N(CC)CC)cc2)cc1 | 1 | 2.5 | -18 | 3 | -4%
O=C(c1sccc1-c1ccccc1)N1CCN(S(=O)(=O)c2ccccc2)CC1 | / | 2.7 | / | -11 | /

The list goes on:
SMILES | Arbovirus anti | RecA intein inh | YopH inh | Mtb bLac sens | Mtb growth | others
COc1ccc(-n2c(=O)[nH]c3cc(C(=O)NCCc4ccc(Cl)cc4)ccc3c2=O)cc1OC | -8 | -11 | / | 44 | -7%
COc1ccc(-c2csc(NC(C)c3nc4cc(C(F)(F)F)ccc4n3CCOCCO)n2)cc1 (centres undefined) | / | 9.7 | / | -2 | 8%
Cc1nn(-c2ccc(F)cc2)c(N)c1C1(O)C(=O)Nc2ccccc21 (centres undefined) | 1 | -0.3 | / | -7 | 1%
FC(F)(F)c1cccc(NC2=NCCCS2)c1 | / | -2.6 | / | 3 | /
CC(C(=O)Nc1ccccc1Cl)c1ccc([N+](=O)[O-])cc1 (centres undefined) | -1 | -1.9 | / | -7 | -1%
CCN1CCN(C(=O)C2CCN(S(=O)(=O)c3cccc4cccnc34)CC2)CC1 | 6 | / | -24 | -3 | 2% | Arbovirus anti repeat=3
Cc1[nH]c(C)c(S(=O)(=O)NCCc2ccc(S(N)(=O)=O)cc2)c1C(=O)N1CCCC1 | / | 2.1 | / | 5 | /
Cc1ccc(C(=O)CSc2nnc(COc3cc(C)cc(C)c3)o2)cc1 | -4 | 0.1 | -18 | 4 | -4%
Cc1ccc(C2C3=C(CCCC3=O)OC3=C2C(=O)CCC3)cc1 | 7 | 1.6 | -6 | 3 | 15%
COc1cc(NC(=O)c2cc(-c3cccs3)on2)cc(OC)c1OC | -19 | 0.8 | -31 | 12 | /
O=C(O)CC(CC(=O)O)(C(=O)O)c1ccccc1 | / | -2.1 | / | -5 | -4%
O=C(CNCC1(N2CCOCC2)CCCCC1)Nc1ccc(Cl)cc1 | -1 | 1.2 | / | 1 | 2%
CCOc1cc(C=O)ccc1OCCSc1ccc(C)cc1 | 5 | 3.2 | -40 | -3 | 4%
Cc1nc2c(c(=O)n1CCC(C)C)c1nc3ccccc3nc1n2CC1CCCO1 (centres undefined) | / | -4.9 | / | -2 | 2%
COc1ccc(CCNC(=O)c2ccccc2NS(=O)(=O)c2cc(C(=O)O)ccc2OC)cc1 | / | -0.6 | / | 0 | /
CCOC(=O)c1c(NC(=O)c2cccs2)sc(C)c1CC | -8 | / | -47 | -5 | 6%
COc1cc(C(=O)OCC(=O)Nc2ccc(OC(F)F)cc2)cc(OC)c1OC | / | 2.5 | / | 4 | /
COc1cc(CO)ccc1OCc1nnnn1-c1ccc(C)cc1 | 0 | -4.3 | / | 2 | 1%
Cc1cc(C)c(C#N)c(Nc2ccccc2C)n1 | / | 1.2 | / | -3 | /
CCc1nc(NCCc2ccccn2)c2nnn(Cc3ccccc3F)c2n1 | 2 | 0.9 | 2 | -8 | 7%
CCOc1ccc(C(=O)Nc2ccc3nc(N4CCN(CC)CC4)cc(C)c3c2)cc1 | / | 1.6 | / | 42 | /
COc1cc([N+](=O)[O-])ccc1NC(=O)CCCOc1ccc(C)cc1 | 8 | 1.2 | -22 | -4 | 0%
Cc1cc2c(=O)n(C)c(SCC(=O)Nc3cccc(O)c3)nc2s1 | / | 3.1 | / | 0 | /
Cc1ccc(NCc2ccccc2)cc1 | 2 | -1.2 | / | -15 | -5%
COc1cc(NC(=O)CSc2nc3[nH]ncc3c(=O)n2-c2ccc(Cl)cc2)cc(OC)c1 | / | 8.4 | / | 10 | /
CC(=O)c1ccc(-n2nnnc2SCC(=O)Nc2cccc(NC(=O)c3ccco3)c2)cc1 | -2 | -0.7 | -9 | 5 | -2%
CC(C)c1onc(C(=O)N2CCC3(CC2)OCCO3)c1[N+](=O)[O-] | / | -6.2 | / | -1 | /
Cc1ccc(NC(=O)c2cc(NC(=O)c3ccco3)ccc2N2CCOCC2)cc1 | -8 | -2.1 | -6 | 10 | -2%
O=C(NCCc1ccccc1)c1oc2ccccc2c1COc1ccccc1 | -1 | 11 | -23 | -3 | 17%
CC(=O)NNC(=O)c1[nH]c2ccc(Cl)cc2c1-c1ccccc1 | / | / | / | -4 | -1%
O=C(CN1C(=O)/C(=C2\SC(=S)N(C3CCS(=O)(=O)C3)C2=O)c2ccccc21)Nc1ccccc1 (centres undefined) | 20 | / | -8 | 7 | 3%
C#CCN(C(=O)c1cc(COc2cccc(C(F)(F)F)c2)on1)C1CCCCC1 | / | 5.4 | / | -8 | /
CC(C)(C)NC(=O)N1CCN(c2ncccc2C(F)(F)F)CC1 | / | -2.2 | / | 1 | -9%
O=S(=O)(NCCOc1ccccc1)c1ccc2ccccc2c1 | 2 | 3.1 | 5 | -6 | -2%
c1ccc(CNc2ccccn2)cc1 | / | -1.3 | / | 1 | /
Cc1oc2cc3oc(=O)ccc3cc2c1C | / | -1.1 | / | -8 | /
CCN(CC(=O)Nc1c(F)cccc1F)C(=O)c1ccc(-n2cncn2)c([N+](=O)[O-])c1 | / | -6.8 | / | 3 | /
CC(C)[C@H](NC(=O)CCCn1nnc2ccccc2c1=O)C(=O)O | / | -1.4 | / | -6 | -9%
Cc1ccc2oc(=O)c3cc(C(=O)Nc4cc(-c5cccc(F)c5)no4)sc3c2c1 | 5 | 0.0 | -28 | 3 | /
CN1CCN(c2ccc(C(N)=O)cc2[N+](=O)[O-])CC1 | 4 | -0.9 | -7 | -3 | 5%

Grouped by structure, the compounds so far with a COOH group (five)
SMILES | Arbovirus anti | RecA intein inh | YopH inh | Mtb bLac sens | Mtb growth | others
COC(=O)c1ccccc1-n1c(CCC(=O)O)ccc1-c1ccc(F)cc1 | / | 0.6 | / | -1 | /
O=C(O)CC(c1ccc(Cl)cc1)N1C(=O)CCC1=O (centres undefined) | 8 | -0.8 | -1 | -8 | -11%
O=C(O)CC(CC(=O)O)(C(=O)O)c1ccccc1 | / | -2.1 | / | -5 | -4%
COc1ccc(CCNC(=O)c2ccccc2NS(=O)(=O)c2cc(C(=O)O)ccc2OC)cc1 | / | -0.6 | / | 0 | /
CC(C)[C@H](NC(=O)CCCn1nnc2ccccc2c1=O)C(=O)O | / | -1.4 | / | -6 | -9%

Other compounds
SMILES | Arbovirus anti | RecA intein inh | YopH inh | Mtb bLac sens | Mtb growth | others
CCOC(=O)N1CCN(C(=O)CSc2ncnc3ccccc23)CC1 | 16 | 5.9 | -24 | -3 | -2%
Cc1cc(C(=O)NNc2c(Cl)cccc2Cl)no1 | / | 14 | / | 3 | -6%
CCOC(=O)/C(N=Nc1ccc2c(c1)OCO2)=C(\C)O | -14 | -0.2 | / | -3 | -3%
O=C1Nc2c(ccc(Cl)c2Cl)C(=O)C1(F)c1ccccc1 (centres undefined) | / | 3.9 | / | / | -1%
Cc1cccc(OCc2nnc(SCC(=O)Nc3ccc(C)c(Cl)c3)o2)c1 | 4 | -1.7 | -30 | 95 | 75%
O=C1CCC(C(=O)Nc2ccccc2N2CCOCC2)=NN1 | / | 1.8 | / | -10 | -4%
O=C(Nc1ccc(Cl)c(C(F)(F)F)c1)NC1CC2CCCC(C1)N2Cc1ccccc1 (centres undefined) | -33 | 12 | / | 99 | -5%
COc1ccc(-c2ccc(C)cc2)cc1[C@H]1[C@H]2C=CC[C@@H](C)[C@@H]2C(=O)N1Cc1ccccc1 | / | 2.0 | / | 0 | 17%
Cc1ccc(NC(=O)CC(=O)Nc2ccc(C)cc2)cc1 | 5 | 13 | / | -10 | -12%
COc1cc(/C=N/NC(=S)NCCN2CCOCC2)cc(OC)c1OC | 5 | -2.7 | -14 | -5 | 4%
